# HCMV UL50-53 inh: cytomegalovirus nuclear egress complex inhibition; HTRF UL50-UL53 interaction, normalized percent inhibition; inhibition, % (concentration not given with the values); 0.15% of 190,000 active; AID 1918969;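 active means both replicates at 50% or more, plus weaker picks with an unusually low signal ratio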;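 further: stock transfer was 100 nL into about 20 µL; 0% = negative control wells and 100% = wells with untagged competitor protein; inactives centre near -12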
# Sa growth inh: blocks Staphylococcus aureus growth; S. aureus RN4220 growth, OD600, 20 h, 42 °C; active compounds read low; relative growth, % (test concentration not listed); 0.53% of 170,000 active; AID 720641;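 active means growth at 42 °C up to 50% and 20 or more points under that at 30 °C, or under 10% at both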;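 further: 300 nL library stock went into each well; scaled to the means of positive and negative controls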
# GIV-Gai inh: blocks GIV peptide binding to rat Galpha-i3; P08753; Galpha-i3/FITC-GIV peptide fluorescence polarization, 90 min; active compounds read low; scaled: aluminum fluoride 0%, vehicle 100%; percent of control (FP), % (no concentration beside the values); 0.42% of 210,000 active;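 active means replicate mean at 85% of control or lower, very high polarization wells dropped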;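 further: wells of about 15 µL received 100 nL stock; the first replicate is given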
# Target sequence (P08753 whole entry, looked up): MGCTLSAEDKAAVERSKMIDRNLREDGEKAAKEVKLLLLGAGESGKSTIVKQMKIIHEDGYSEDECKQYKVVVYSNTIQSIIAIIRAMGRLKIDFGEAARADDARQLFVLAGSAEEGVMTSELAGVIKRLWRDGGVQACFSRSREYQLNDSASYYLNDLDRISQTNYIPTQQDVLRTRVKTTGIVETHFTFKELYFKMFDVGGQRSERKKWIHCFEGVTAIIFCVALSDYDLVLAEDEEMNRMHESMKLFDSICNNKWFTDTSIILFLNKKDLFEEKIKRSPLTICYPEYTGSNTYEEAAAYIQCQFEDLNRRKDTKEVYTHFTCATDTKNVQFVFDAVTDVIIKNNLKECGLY
# Sa growth inh second temp: further read-out of Sa growth inh, marked with its call; relative growth, %; measured here: growth at 30 °C;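 optical density after 20 h as mean of two plates; 100% = untreated growth and lower means inhibition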
# * hit, by the source's call; · = no result given; & = joins results of further samples.
SMILES,HCMV UL50-53 inh,Sa growth inh,Sa growth inh second temp,GIV-Gai inh
CNC(=O)COC(=O)c1ccc(Br)o1,-3,102,86,·
O=C1/C(=C/c2c[nH]c3ccccc23)COc2ccccc21,-4,113,77,107
O=C1CC(C(=O)c2ccccc2)N=C(N2CCOCC2)N1 (stereo unspecified),14,102,103,102
CCOc1ccc(NC(=O)COc2nsnc2N2CCOCC2)cc1,-20,90,85,100
O=C(/C=C/c1nc2ccccc2s1)N1CCN(C(=O)C2CCCO2)CC1 (stereo unspecified),-98,65,77,·
CCn1c(=O)c2sccc2n2c(CCCC(=O)Nc3ccccc3)nnc12,·,92,97,103
N#C/C(=C\c1cccs1)C(N)=O,-145,96,85,236
CCN(CC)c1ccc(C(=O)NCc2ccc3c(c2)CCN3C(C)=O)cc1,·,146,81,104
CCCN(CCC)CCNC(=O)c1ccc2c(c1)NC(=O)C(CS(=O)(=O)Cc1cccc(Br)c1)N2 (stereo unspecified),·,120,97,112
O=C(CCCCn1c(=O)c2ccccc2n(Cc2ccccc2Cl)c1=O)NCc1ccc2c(c1)OCO2,-7,97,91,103
Cc1ccc(-c2nc(CCNC(=O)C(=O)Nc3ccc(C)c(C)c3)cs2)cc1,·,88,93,99
COc1cc(C=Nc2ccc(O)cc2)ccc1OC(=O)CC1SC(=O)NC1=O (stereo unspecified),·,117,61,103

# The final 7 records of the section above come first, to join the parts.
SMILES,HCMV UL50-53 inh,Sa growth inh,Sa growth inh second temp,GIV-Gai inh
CCn1c(=O)c2sccc2n2c(CCCC(=O)Nc3ccccc3)nnc12,·,92,97,103
N#C/C(=C\c1cccs1)C(N)=O,-145,96,85,236
CCN(CC)c1ccc(C(=O)NCc2ccc3c(c2)CCN3C(C)=O)cc1,·,146,81,104
CCCN(CCC)CCNC(=O)c1ccc2c(c1)NC(=O)C(CS(=O)(=O)Cc1cccc(Br)c1)N2 (stereo unspecified),·,120,97,112
O=C(CCCCn1c(=O)c2ccccc2n(Cc2ccccc2Cl)c1=O)NCc1ccc2c(c1)OCO2,-7,97,91,103
Cc1ccc(-c2nc(CCNC(=O)C(=O)Nc3ccc(C)c(C)c3)cs2)cc1,·,88,93,99
COc1cc(C=Nc2ccc(O)cc2)ccc1OC(=O)CC1SC(=O)NC1=O (stereo unspecified),·,117,61,103
Cc1onc(-c2ccccc2Cl)c1C(=O)Nc1ccc(S(=O)(=O)N2CCC(C)CC2)cc1,·,119,95,97
CCN1C(=O)c2cc(C(=O)N3CCN(C4CCCCC4)CC3)nn2CC1(C)C(=O)NC1CCCC1 (stereo unspecified),-3,·,·,102
O=C1Cc2cc(C(=O)CSc3nnc(C4CC4)n3-c3ccccc3)ccc2N1,-14,98,89,·
Cc1cc(=O)oc2cc(OCC(=O)N(c3ccccc3)C(C)C)ccc12,-10,92,89,·
CC(C)CCn1c(=O)c2sccc2n2c(CCCC(=O)NC3CC3)nnc12,-35,103,92,104
N#Cc1c(N2CCN(C(=S)NCc3ccccc3)CC2)nc(-c2ccccc2)c2c1CCCC2,·,91,92,106
Nn1c(Cc2cccc3ccccc23)n[nH]c1=S,-12,115,88,·
COc1ccccc1CNC(=O)c1ccc(Nc2nc3ccccc3n3nnnc23)cc1,-5,101,93,106
Nc1cc(=O)[nH]c(SCC(=O)Nc2ccccc2)n1,-13&-10,99,96,104
O=C(Oc1cccc2cccnc12)c1cc(C(F)(F)F)cc(C(F)(F)F)c1,·,1.3*,0.7*,99
CN(C)CCOC(=O)CCN1C(=O)/C(=C/c2ccccc2Cl)SC1=S,-55,·,·,106
COc1ccc(-c2onc(C)c2C)cc1S(=O)(=O)NCc1ccco1,·,112,87,106
CCCN1COc2ccc3c(C)cc(=O)oc3c2C1,-40,87,82,105
Cc1ccc(-n2nc3c(N4CCCC(C(=O)NCc5ccccn5)C4)nnc(C)c3c2C)cc1 (stereo unspecified),-6,·,·,115
C=Cc1ccc(Cn2nc3n(CC(C)C)c(=O)c4ccc(C(=O)NC(C)CC)cc4n3c2=O)cc1 (stereo unspecified),-20,·,·,102
CCOC(=O)c1sc(NC(=O)COc2ccccc2Cl)c(C(=O)OCC)c1C,19,99,100,98
CSc1ccc(NS(=O)(=O)c2ccc(-n3cnnn3)cc2)cc1,-11,102,89,99
Cn1cc(-c2nc(-c3ccc(Br)cc3)no2)c(=O)c2cc(F)c(N3CCOCC3)cc21,-31,·,·,104
CCCn1c(=O)c2ccccc2n2c(SCC(=O)NCc3ccccc3)nnc12,3,·,·,99
CCCS(=O)(=O)N1CC(=O)N(c2cccc(Cl)c2C)C(C)(C(=O)NC2CCCC2)C1 (stereo unspecified),·,105,91,103
O=C(CC1(CC2=NS(=O)(=O)c3ccccc3N2)CCCC1)NCc1ccc(F)cc1,-29,·,·,96
O=C(NCCOc1ccccc1Cc1ccccc1)c1cccnc1,-14,94,71,103
Cc1ccc(-c2nnc3c4cnn(-c5cccc(C)c5)c4ncn23)cc1,-7,·,·,102
COc1ccccc1C1/C(=C(/O)c2ccccc2)C(=O)C(=O)N1CC(C)O (stereo unspecified),6,101,97,104
O=C(NCC(c1ccco1)N1CCN(c2ccccc2)CC1)c1ccccc1 (stereo unspecified),-11,103,92,100
CC(=O)Oc1ccc(-c2nc3cc(Cl)ccc3o2)cc1,-15,98,95,106
COc1cc(OC)cc(N2C(=O)CSCC2=O)c1,-11,101,74,102
COc1cc(C(=O)NCc2nnnn2-c2ccc(C)c(C)c2)cc(OC)c1OC,·,94,87,100
COc1cccc(C(=O)N(C)CC(OC)OC)c1,-6,95,83,100
Oc1cccc(Cn2c(-c3cccc(O)c3)nc3ccccc32)c1,-12,97,84,106
Cc1cccc(C(c2sc3nc(-c4ccco4)nn3c2O)N2CCN(Cc3ccccc3)CC2)c1 (stereo unspecified),·,122,104,106
CN(C)c1ccc(CNC(=O)Cn2c(=O)oc3cc(S(=O)(=O)N4CCCCCC4)ccc32)cc1,·,106,82,101
CCOc1cc(C#N)c(NC(=O)c2ccco2)cc1OCC,14,81,89,111
N#C/C(=C\c1ccco1)C(=O)C1CC1,-146,90,79,107
COC(=O)c1c(C)[nH]c(C(=O)C(C)OC(=O)c2ccccc2NS(=O)(=O)c2ccc3[nH]c(=O)[nH]c3c2)c1C (stereo unspecified),-9,87,91,·
Cc1ccc(C)c(NC(=O)CSc2ncc3c(n2)-c2ccccc2N(Cc2ccccc2C)S3(=O)=O)c1,·,92,86,99
Cc1cccc(-c2noc(CNC(=O)c3ccco3)n2)c1,-27,104,90,105
COCCNc1nc(-c2ccc(S(=O)(=O)N3CCCCC3)cc2)cs1,-49,77,95,·
O=C(CC1CCCCC1)Nc1ccc2nc3n(c(=O)c2c1)CCCC3,-7,103,83,110
O=C(Oc1cccc(-n2cnnn2)c1)C1CCCCC1,-17,92,87,101
O=C1CC(SCc2ccc(Cl)cc2)C(=O)N1c1ccc(Br)cc1 (stereo unspecified),-14,85,76,·
Cc1ccc(C(C)NC(=O)/C=C/c2ccccc2)c(C)c1 (stereo unspecified),-3,81,81,94
CCc1nn(CCCC(=O)N2CCN(c3cc(Cl)ccc3C)CC2)c(=O)c2cc3occc3n12,-8,103,86,105
CCN(c1ccccc1C(=O)O)S(=O)(=O)c1ccc2[nH]c(=O)[nH]c2c1,-18,93,89,96
CNc1nnc(Sc2nnc(NC)s2)s1,-10,52,43,103
COc1ccc(NC(=O)c2cc3nc(-c4ccc(OC)c(OC)c4)cc(C(F)(F)F)n3n2)cc1OC,-21,·,·,109&108
O=C(COC(=O)CC1CC2CCC1C2)Nc1ccc(F)cc1Cl (stereo unspecified),-30,145,83,·
CCOc1cc(S(=O)(=O)n2c(C)nc3ccccc32)ccc1F,-33,70,75,101

# Of the compounds above, these have an NH in an aromatic ring:
SMILES,HCMV UL50-53 inh,Sa growth inh,Sa growth inh second temp,GIV-Gai inh
O=C1/C(=C/c2c[nH]c3ccccc23)COc2ccccc21,-4,113,77,107
Nn1c(Cc2cccc3ccccc23)n[nH]c1=S,-12,115,88,·
Nc1cc(=O)[nH]c(SCC(=O)Nc2ccccc2)n1,-13&-10,99,96,104
COC(=O)c1c(C)[nH]c(C(=O)C(C)OC(=O)c2ccccc2NS(=O)(=O)c2ccc3[nH]c(=O)[nH]c3c2)c1C (stereo unspecified),-9,87,91,·
CCN(c1ccccc1C(=O)O)S(=O)(=O)c1ccc2[nH]c(=O)[nH]c2c1,-18,93,89,96

# Some of these compounds in order of count of non-hydrogen atoms, smallest number first.
SMILES,HCMV UL50-53 inh,Sa growth inh,Sa growth inh second temp,GIV-Gai inh
CNc1nnc(Sc2nnc(NC)s2)s1,-10,52,43,103
Nc1cc(=O)[nH]c(SCC(=O)Nc2ccccc2)n1,-13&-10,99,96,104
Cc1ccc(C(C)NC(=O)/C=C/c2ccccc2)c(C)c1 (stereo unspecified),-3,81,81,94
CCc1nn(CCCC(=O)N2CCN(c3cc(Cl)ccc3C)CC2)c(=O)c2cc3occc3n12,-8,103,86,105
CCN1C(=O)c2cc(C(=O)N3CCN(C4CCCCC4)CC3)nn2CC1(C)C(=O)NC1CCCC1 (stereo unspecified),-3,·,·,102

# (further entries)
SMILES,HCMV UL50-53 inh,Sa growth inh,Sa growth inh second temp,GIV-Gai inh
CCN(CC)Cc1nc2ccccc2[nH]1,-15,119,102,105
Cc1ccc(S(=O)(=O)c2cnc(SCC(=O)Nc3ccc4c(c3)OCCO4)[nH]c2=O)cc1Cl,·,86,95,102
COc1ccc(NC(=O)CC(C)S(=O)(=O)c2ccc3c(c2)CC(C)N3C(C)=O)cc1 (stereo unspecified),-16,87,86,97
CCc1c(C)nc2c(C)cccc2c1SCCC#N,-31,103,75,103
CNc1nc(-c2ccc(F)c(F)c2)c(C)s1,-11,82,95,·
Cc1cccc(Nc2nnc(-n3nc(C)cc3C)c3ccccc23)c1,6,98,102,108
O=C(NCCN1CCNC1=O)c1sc2ccccc2c1Cl,-38,95,82,97
O=C(Nc1ccccc1Br)N1Cc2cccn2-c2ccccc21,-23,·,·,97
O=C(Nc1nnc(C2CC(=O)N(c3ccc(Cl)cc3)C2)s1)c1ccco1 (stereo unspecified),-10,99,91,97
CCCCN(CCCC)CCCNC(=O)c1ccc2c(c1)sc1nc(-c3ccc(OC)cc3)cn12,-16,·,·,100
COc1ccc(Br)cc1/C=C1/N=C(c2ccc(C)c([N+](=O)[O-])c2)OC1=O,12,·,·,108
O=C(NCc1ccc(F)cc1)NCC(c1ccccc1)c1c[nH]c2ccccc12 (stereo unspecified),-18,·,·,95
CCN(CC)/C(=C\C#N)c1ccc(F)cc1,-11,47,19,·
COCCCn1cc(-c2c(-c3cc(=O)oc4cc(OC)ccc34)oc3cc(OC)ccc23)cc(C#N)c1=O,-30,83,82,·
CCN(CC)CCC(=O)N1N=C(c2ccc(C)cc2)CC1c1ccc(OC)cc1 (stereo unspecified),·,101,81,111
CCn1c(=O)cc(SCC(=O)Nc2cc(Cl)ccc2OC)c2ccccc21,-36,109,83,99
CCc1ccccc1NC(=O)c1cc(C)on1,-1,100,94,97
Cc1c(C(=O)N(C)C)sc2[nH]c(=O)n(-c3ccc(F)cc3)c(=O)c12,2,104,97,99
Cc1cc(C(=O)N2CCCC2c2cccc(F)c2)on1 (stereo unspecified),-4,·,·,105
O=C(Nc1ccc(F)cc1F)c1ccc(-n2cnnc2)cc1,·,91,82,106
CSc1ccc(S(=O)(=O)Nc2ccccc2C(=O)N2CCOCC2)cc1,11,104,86,102
COc1ccccc1N1CCN(c2ncnc3c2nc2n3CCCC2)CC1,-11&-36,105,91,101&98
Cc1ccc(NC(=O)CN2C(=O)COc3ccc(S(=O)(=O)N4CCCCC4)cc32)cc1Cl,·,132,102,105
COc1ccc2oc(-c3cccc(NC(=O)c4ccc(C#N)cc4F)c3)nc2c1,-11,112,87,98
CN(C=O)CP(=O)(O)CN1CCCCC1,·,117,84,102
COC(=O)c1oc2c(c1C)-c1nc3ccccc3nc1C(C)(C)C2,·,116,90,105
CNC(=O)c1cc(S(=O)(=O)N2CCc3ccccc32)ccc1C,-18,96,78,100
CC(C)(C)c1ccc(NC(=O)N2CCOCC2)cc1,5,97,99,97
O=C(O)CC(CC(=O)Nc1ccc(-n2ccc(C(F)(F)F)n2)cc1)c1ccccc1 (stereo unspecified),-15,74,82,102
COc1ccc(N2CCN(S(=O)(=O)c3ccc(-c4coc(C)n4)cc3)CC2)cc1,·,111,82,101
O=C1CC(c2ccccc2)Cc2[nH]c(=O)c(C(=O)Nc3ccccc3)cc21 (stereo unspecified),-11,·,·,102
CC1(C)CC(=O)C2=C(C1)OC(N)=C(C#N)C2c1ccc(C2C(C#N)=C(N)OC3=C2C(=O)CC(C)(C)C3)cc1 (stereo unspecified),-11,·,·,108
CN1CCc2c(sc3c2C(=O)NC(c2ccc(C(C)(C)C)cc2)N3)C1 (stereo unspecified),-53,107,75,230
Cc1ccc2nc(-c3ccc(Cl)c(NC(=O)COc4ccc(C(C)C)cc4)c3)oc2c1,-11,104,85,111
Cc1ccc(C)c(CN2C(=O)c3ccccc3S(=O)c3ccc(C(=O)NCCC4=CCCCC4)cc32)c1 (stereo unspecified),-6,101,87,97
Cc1cc(=O)[nH]c(SCC(=O)N(C)c2ccccc2)n1,-28,92,83,98
Cc1nc(CC(=O)N/N=C/c2ccc(CSC(F)F)o2)cs1,-48,75,88,·
CCN(CC)c1ccc(NC(=O)COC(=O)Cn2nnc(-c3ccccc3)n2)cc1,1,98,95,·
O=C(O)Cc1ccc2c(c1)OCCO2,13,85,98,·
COCC(=O)N1N=C(c2cccc(NS(C)(=O)=O)c2)CC1c1ccccc1F (stereo unspecified),-17,98,92,106
COc1ccc(NC(=O)c2nnc(CCCC(=O)NCc3ccccc3)s2)cc1,-16,·,·,105
Cc1nc(SCC(=O)c2ccc3c(c2)OCO3)c2c3c(sc2n1)CCCC3,-4,·,·,102
